Compound activity from PubChem BioAssay.
LANA-H2B inh – blockers of LANA interaction with H2A/H2B – biochemical, FP readout, HTS, primary screen; AID 2629, 2010; inhibition, % (concentration not given with the values); 320,000 compounds, 0.6% hits; cell-free LANA-H2A/H2B peptide, fluorescence polarization; in the data active = inhibition mostly above about 10%, no sharp cut-off; inactive = mostly below about 6.7%;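 note: stock transfer was 7.5 nL into about 10 µL; 0% = median of vehicle wells and 100% = median of positive control wells; one replicate is shown; the record names a cut of 25% in any replicate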
RanGTP-Impb inh – inhibitors of RanGTP-importin-beta interaction, primary screen, biochemical, FRET, CFP-Ran, YFP-importin-beta, homogeneous. Ran GTPase (GTP-bound) - importin-beta complex. cell-free CFP-Ran/YFP-importin-beta FRET ratio. inhibition, % (concentration not given with the values). 300,000 compounds, 1.1% hits;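 active = most replicates above 15%; inconclusive = exactly half above 15%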;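 note: 0% = DMSO wells and 100% = Ran loaded with GDP instead of GTP; wells of about 40 µL received 100 nL stock; the first replicate is given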
T cruzi inh – inhibitors of intracellular T. cruzi growth, primary screen, luminescence, NIH3T3 host cells | T. cruzi beta-gal in NIH3T3, 90 h | inhibition, % (concentration not given with the values) | 300,000 compounds, 1.4% hits | AID 1885, 2009;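 active = mean inhibition across valid replicates above about 55%, limit read from the data; inconclusive = mean below that limit but half or more replicates reach it; inactive = mean below it, under half of replicates reach it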;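 note: signal also drops with host cell toxicity which is not excluded here; 0% = plate median of DMSO wells and 100% = zero luminescence signal; higher percent means less beta-gal luminescence so fewer parasites; stock transfer was 50 nL into about 50 µL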
AF4-AF9 inh – inhibitors of AF4 peptide binding to AF9, primary screen, biochemical, AlphaScreen, biotin-AF4 peptide, FLAG-AF9, single point; Protein AF-9 (Homo sapiens), P42568; AID 651704, 2012; 350,000 compounds, 0.47% hits; inhibition, % at 10 µM;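 active = every replicate reaching a set inhibition limit, whatever the replicate mean, cut at about 25% in these data; inconclusive = mean inhibition reaches that limit but some replicates miss it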;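 note: 0% = plate neutral control median and 100% = total signal loss; the record names both 10 and 1 µM as test concentration; the first replicate is given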
Target sequence (P42568 whole entry, looked up): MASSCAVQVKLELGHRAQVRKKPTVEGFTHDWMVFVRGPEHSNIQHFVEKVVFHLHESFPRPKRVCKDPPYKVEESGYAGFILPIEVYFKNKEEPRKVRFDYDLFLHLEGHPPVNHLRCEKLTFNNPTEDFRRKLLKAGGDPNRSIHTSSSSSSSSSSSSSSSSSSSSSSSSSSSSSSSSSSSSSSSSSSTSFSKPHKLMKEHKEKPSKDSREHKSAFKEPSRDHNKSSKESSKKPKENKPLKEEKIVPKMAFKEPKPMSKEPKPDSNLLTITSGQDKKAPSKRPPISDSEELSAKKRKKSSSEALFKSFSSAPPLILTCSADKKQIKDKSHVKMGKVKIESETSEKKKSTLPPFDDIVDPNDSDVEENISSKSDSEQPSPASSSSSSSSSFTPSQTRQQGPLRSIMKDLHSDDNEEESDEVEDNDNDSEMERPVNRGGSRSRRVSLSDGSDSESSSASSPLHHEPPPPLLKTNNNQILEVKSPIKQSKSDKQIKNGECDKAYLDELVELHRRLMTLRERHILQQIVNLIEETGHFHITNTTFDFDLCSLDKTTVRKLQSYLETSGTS
Bfl-1 A1 inh – caspase 3/7 activation in MEF A1-2A-BIM cells, primary screen, A1 inhibitor project, cell-based, luminescence, HTS | Caspase-Glo 3/7 luminescence, 3 h; percent of clofoctol response, vehicle zero | caspase activation, % (concentration not given with the values) | 330,000 compounds, 0.066% hits;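 active = over half of replicate activation scores above 10%, or exactly half above 10 with the replicate mean above 10; inconclusive = replicate mean below 10 yet half the replicates above 10; inactive = over half of replicates below 10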;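 note: wells of about 30 µL received 50 nL stock; many hits fall short of the cut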
Vif TR-FRET – inhibitors of Vif binding to APOBEC3G peptide, primary screen, biochemical, TR-FRET, GST-Vif 1-94, biotin-A3G peptide, dose response retest (AID 1117319). TR-FRET GST-Vif / biotin-A3G peptide binding; higher % means a stronger effect; test concentration not given here; strong numbers were not always called active. inhibition, %, or IC50 in µM where a hit was titrated. 260,000 compounds, 0.57% hits;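 active = above the screen mean plus three standard deviations and confirmed in dose response; inconclusive = results disagree or hit not tested in dose response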;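 note: Vif residues 1-94 fused to GST binding biotinylated APOBEC3G peptide 110-148; 0% = full assay without inhibitor and 100% = GST in place of GST-Vif; retest series ran down from 100 µM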
Calb FLC – C. albicans growth inhibition with fluconazole, primary screen, CaCi-2 strain, Alamar Blue fluorescence; growth inhibition, % (concentration not given with the values); C. albicans CaCi-2 (fluconazole-resistant clinical isolate) + fluconazole, 48 h; 300,000 compounds, 0.57% hits;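 active = most replicates above 75%; inconclusive = exactly half above 75%; inactive = most below 75%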;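 note: all wells also contain fluconazole at 8 µg/ml as a sub-toxic cotreatment; 0% = median of DMSO wells and 100% = median of geldanamycin control wells; wells of about 8 µL received 7.5 nL stock; the first replicate is given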
Beta cell apopt – inhibitors of cytokine-induced beta cell apoptosis, primary screen, luminescence. INS-1E cytokine-induced death, ATP luminescence, 48 h; percent of positive-control rescue, neutral wells zero. protection from apoptosis, % (no concentration beside the values). 300,000 compounds, 0.8% hits. AID 435005, 2010;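 active = all replicates at 75% or more, or half of them and the mean; inconclusive = half reach 75% but not the mean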;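 note: 0% = cytokine-treated negative control wells and 100% = positive control rescue; higher means more ATP so stronger rescue from cytokine killing; wells of about 40 µL received 100 nL stock; the first replicate is given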
Starred values were filed as active, the others as inactive; u = inconclusive; x = no result given.

The first 11 compounds (preview)
SMILES	LANA-H2B inh	RanGTP-Impb inh	T cruzi inh	AF4-AF9 inh	Bfl-1 A1 inh	Vif TR-FRET	Calb FLC	Beta cell apopt
CCNc1nc(Oc2ccc(=O)[nH]n2)nc(N2CCOCC2)n1	1.4	7.6	-9	x	1.0	31%	-16	-1
Oc1c(Br)cc(/C=N/Nc2nncc3ccccc23)cc1Br	-6.9	6.4	52	x	-4.1	x	14	20
O=C(O)CC(c1ccccc1)c1ccccc1	3.5	-0.1	-7	x	0.4	1%	10	0
O=C(NNS(=O)(=O)c1ccccc1)C1CCCCC1	7.6	-3.1	-2	0.4	0.1	x	-4	x
Cc1ccc(C(=O)C(C)OC(=O)Cc2n[nH]c(=O)c3ccccc23)cc1C (stereo not drawn)	6.0	2.0	2	-0.5	0.9	x	3	-5
CCC(=O)Nc1ccc(S(=O)(=O)N2CCCCC2)cc1OC	-0.9	2.5	-1	x	1.0	8%	5	0
Cc1cccc(C)c1NC(=O)CN(C)C(=O)CN1C(=O)NC2(CCCC2)C1=O	-3.4	-1.9	-9	0.8	-1.4	4%	2	1
Nc1ccccc1C(=O)N/N=C1/C2CN3CCN(C2)CC1(Cc1ccccc1)C3	0.0	0.2	0	1.3	-0.3	x	2	-2
COc1ccc(-c2c3c(=O)n(C)c(=O)n(C)c3cn2Cc2cccnc2)cc1	1.7	-1.7	7	x	-0.2	0%	-8	-2
CC1(c2ccc3c(c2)OCCO3)NC(=O)N(CC(=O)Nc2c(F)cccc2F)C1=O (stereo not drawn)	-0.6	x	x	4.9	1.1	2%	x	1
Cc1ccc(N2C(N)=C(C#N)C3(C(=O)N(C)c4ccccc43)C3=C2CC(C)(C)CC3=O)cc1Cl (stereo not drawn)	-0.4	4.1	12	x	-0.3	2%	-9	0

This part in full, previewed entries included:
SMILES	LANA-H2B inh	RanGTP-Impb inh	T cruzi inh	AF4-AF9 inh	Bfl-1 A1 inh	Vif TR-FRET	Calb FLC	Beta cell apopt
CCNc1nc(Oc2ccc(=O)[nH]n2)nc(N2CCOCC2)n1	1.4	7.6	-9	x	1.0	31%	-16	-1
Oc1c(Br)cc(/C=N/Nc2nncc3ccccc23)cc1Br	-6.9	6.4	52	x	-4.1	x	14	20
O=C(O)CC(c1ccccc1)c1ccccc1	3.5	-0.1	-7	x	0.4	1%	10	0
O=C(NNS(=O)(=O)c1ccccc1)C1CCCCC1	7.6	-3.1	-2	0.4	0.1	x	-4	x
Cc1ccc(C(=O)C(C)OC(=O)Cc2n[nH]c(=O)c3ccccc23)cc1C (stereo not drawn)	6.0	2.0	2	-0.5	0.9	x	3	-5
CCC(=O)Nc1ccc(S(=O)(=O)N2CCCCC2)cc1OC	-0.9	2.5	-1	x	1.0	8%	5	0
Cc1cccc(C)c1NC(=O)CN(C)C(=O)CN1C(=O)NC2(CCCC2)C1=O	-3.4	-1.9	-9	0.8	-1.4	4%	2	1
Nc1ccccc1C(=O)N/N=C1/C2CN3CCN(C2)CC1(Cc1ccccc1)C3	0.0	0.2	0	1.3	-0.3	x	2	-2
COc1ccc(-c2c3c(=O)n(C)c(=O)n(C)c3cn2Cc2cccnc2)cc1	1.7	-1.7	7	x	-0.2	0%	-8	-2
CC1(c2ccc3c(c2)OCCO3)NC(=O)N(CC(=O)Nc2c(F)cccc2F)C1=O (stereo not drawn)	-0.6	x	x	4.9	1.1	2%	x	1
Cc1ccc(N2C(N)=C(C#N)C3(C(=O)N(C)c4ccccc43)C3=C2CC(C)(C)CC3=O)cc1Cl (stereo not drawn)	-0.4	4.1	12	x	-0.3	2%	-9	0
O=C(CSc1nc(-c2ccc(F)cc2)cs1)N1CCc2ccccc21	1.4	2.7	12	1.5	0.9	-12%	-9	5
S=C(Nc1ccccc1)N1CCC(Cc2ccccc2)CC1	-1.9	-3.5	19	2.4	-0.6	x	2	x
O=C(COc1cc2oc(=O)c3c(c2cc1Cl)CCC3)NCCCN1CCCC1=O	3.8	-0.9	-19	-1.7	0.6	x	-2	6
COc1ccccc1NC(=O)c1ccc(NC(=O)COC(=O)C2CC2C)cc1 (stereo not drawn)	19*	5.6	0	x	-0.4	-6%	-1	-5
O=C(NCC(=O)N(c1cccnc1)C(C(=O)NC1CCCCC1)c1ccccc1)c1ccco1 (stereo not drawn)	0.7	3.2	10	0.2	-0.1	x	-3	-5
CCC(=O)N1CCc2cc(S(=O)(=O)NCCCN(CC)Cc3ccccc3)ccc21	5.6	-2.0	5	x	0.8	27%	3	2
CC(=O)c1cccc(NC(=O)c2ccccc2-c2ccccc2C(=O)O)c1	4.5	-0.8	-7	-2.3	-0.3	2%	-16	-4
COc1cc(S(=O)(=O)Nc2ccncc2)ccc1F	3.9	2.5	-15	-1.4	4.3	5%	-11	3
CC1CN(c2oc(-c3ccccc3Cl)nc2C#N)CC(C)O1 (stereo not drawn)	2.2	u	4	x	1.1	5%	u	-4
Nc1cc(Cl)ccc1N1CCCCCC1	-3.7	2.9	36	1.0	0.4	6%	-19	-3
Cc1ccc(OCC(=O)NCc2cccs2)cc1	-5.0	2.4	-9	x	0.2	2%	-7	0
COCCCNC(=S)N(CCO)Cc1cc2cc3c(cc2[nH]c1=O)OCCO3	2.6	3.6	-6	-4.8	-0.5	x	-5	6
COc1cc(C)c(S(=O)(=O)Nc2ccc(CC(=O)O)cc2)cc1C	-1.8	1.9	-7	x	1.5	8%	-4	2
CN1CCN(c2ccc(Cl)cc2NC(=O)CC2OC(=O)c3ccccc32)CC1 (stereo not drawn)	-0.9	0.8	37	2.3	-0.6	5%	x	0

The results go on:
SMILES	LANA-H2B inh	RanGTP-Impb inh	T cruzi inh	AF4-AF9 inh	Bfl-1 A1 inh	Vif TR-FRET	Calb FLC	Beta cell apopt
CC(=O)N1CCc2cc(S(=O)(=O)NC(CC(C)C)C(=O)N3CCn4c3nc3ccccc34)ccc21 (stereo not drawn)	-1.0	-7.2	1	x	-0.5	-2%	u	-2
CCCCN(CC)C(=O)CN(C)S(=O)(=O)c1cccc2nsnc12	1.8	-3.9	6	x	0.2	25%	-10	-5
Cc1cc(O)c(C(=O)/C=C/c2ccccc2O)c(=O)o1	158*	2.9	-25	-0.2	0.7	0%	10	-2
C(#Cc1ccccc1)C[N+]1(CC#Cc2ccccc2)CCCC1	4.9	3.6	-10	2.0	-0.2	-9%	9	17
COc1ccc(N=C(N)N=C(N)N)c(OC)c1	3.4	2.3	0	x	-0.1	x	1	1
C=CCN(CCNP(=O)(OCC)OCC)CP(=O)(OCC)OCC	x	6.3	4	x	0.1	-11%	-2	-3
COc1cc(C(=O)N2C[C@H]3CC[C@H]2C3)ccc1OC1CCN(C(C)=O)CC1	-1.8	-1.4	0	-1.3	0.1	x	-12	0
CC(C)C[C@@H](CO)N1CCN(Cc2cccc(C#N)c2)CCC1=O	-1.1	-0.3	-18	-0.2	0.5	x	-5	0
Cc1cccc(N2CCN(c3ccc(N4C(=O)CCCC4=O)cc3[N+](=O)[O-])CC2)c1C	-0.6	u	14	-2.3	0.1	u	3	2
O=C(NCCCN1CCOCC1)c1ccc(CNS(=O)(=O)c2ccc(Br)cc2)cc1	x	0.9	13	-2.3	-0.2	u	13	-5
Cc1cccc(NC(=S)N/N=C/c2cccn2Cc2ccc(F)cc2)c1	5.0	0.1	36	3.2	-0.1	-6%	11	35
Cc1ccc(S(=O)(=O)Nc2ccc(-c3nc4ccc(C)cc4s3)cc2)cc1	6.3	4.8	19	0.2	-0.1	29%	1	2
O=C1CSC(=S)N1/N=C/c1ccc2c(c1)OCCO2	0.4	-0.6	-5	-0.1	0.0	5%	-5	2
Cc1ccc(NC(=O)CNC(=O)c2cccc(C)c2)nc1	2.8	1.0	-8	8.2	0.0	-2%	-10	x
Cc1ccc(CNC(=O)C2CCN(S(=O)(=O)c3cccs3)CC2)o1	0.0	3.2	6	x	-0.2	12%	0	x
O=C1NC(=O)C2(COC(c3cccc([N+](=O)[O-])c3)OC2)S1 (stereo not drawn)	-6.8	2.9	-2	-0.5	-0.5	4%	14	x
CCOc1cc2nc(-c3ccc(OC)c(OC)c3)nc(N3CCOCC3)c2cc1OC	5.0	-0.2	35	x	0.4	-6%	2	5
Cc1ccc2c(C)c(C(=O)N3CCC(N4CCC(C(=O)NC5CC5)CC4)CC3)oc2c1	x	0.7	1	-55	x	u	-5	x
CCOC(=O)c1c(C)c(C(=O)N2CCN(c3ccccc3)CC2)c(C)n1C	3.4	-0.7	-8	3.8	-0.3	x	14	-3
N#CC1(NC(=O)CSc2nc3ccccc3o2)CCCCC1	-3.5	x	x	-3.3	-0.3	-1%	x	1
CC(=O)NC(Cc1cccc(F)c1)C(=O)NC1CCN(C(=O)Nc2ccc(C)cc2)CC1 (stereo not drawn)	6.7	6.6	5	-0.6	0.0	x	3	-3
COC(=O)c1ccc(-c2nc(-c3ccc(Br)o3)no2)cc1	x	-1.9	-7	-12	x	-1%	-3	x
O=C(Nc1ccc2c(c1)OCCO2)C1CCN(c2cnccn2)CC1	-1.7	0.5	5	x	-1.3	-8%	11	-2
O=C(O)CC1(CC(=O)Nc2ccc3c(c2)OCCCO3)CCCCC1	2.0	-0.3	x	-3.1	-2.9	4%	-7	-3
O=S(=O)(NCc1ccccc1)c1ccc(S(=O)(=O)NCC2CCCO2)cc1 (stereo not drawn)	-5.0	-1.2	-3	-0.9	0.3	0%	-14	4

(continued)
SMILES	LANA-H2B inh	RanGTP-Impb inh	T cruzi inh	AF4-AF9 inh	Bfl-1 A1 inh	Vif TR-FRET	Calb FLC	Beta cell apopt
CCOP(=O)(OCC)c1nc(-c2ccc(Br)cc2)oc1N1CCCCC1	0.7	-0.9	20	13	1.2	0%	0	-5
O=C1CNC(=S)N1C1CCCCCC1	0.3	3.7	-1	2.5	-1.3	4%	-11	-4
Cc1c(NC(=O)Nc2cccc(C(F)(F)F)c2)c(=O)n(-c2ccccc2)n1C	4.4	-2.4	-5	-6.1	0.1	x	-5	-4
O=C(CN1C(=O)c2ccccc2C1=O)NN1C(=O)c2ccccc2C1=O	4.2	-2.9	-9	x	0.3	9%	-2	-6
N#CCc1ccc(OC(=O)Nc2ccccc2)cc1	-5.8	-1.6	3	-2.9	-3.3	-2%	-1	-2
CC(C)(C)NC(=O)C(c1ccccc1)N(Cc1ccco1)C(=O)c1csnn1 (stereo not drawn)	-2.1	1.1	5	x	0.0	3%	-6	1
COc1ccc2oc(C(=O)N3CCN(S(=O)(=O)c4ccc(F)cc4)CC3)c(C)c2c1	2.3	x	x	-4.5	-0.5	-9%	x	1
COc1cccc(CNCc2cc(OC)cc(OC)c2)c1	2.3	-2.6	-14	-5.3	1.6	-4%	1	x
CC(=O)OCC(=O)Nc1ccc(Br)c(C)c1	-4.9	-0.7	-25	-1.7	-0.2	x	2	2
